# Arbovirus anti: blocks arbovirus infection; inhibition, % at 10 µM; AID 1251; 0.37% of 200,000 active; arbovirus infection cell-based antiviral screen;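 active = inhibition from about 30%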;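 note: bluetongue infection of BSR cells; cell survival read as ATP light after 72 h; 0% = infected wells without compound and 100% = uninfected wells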
# RecA splice inh: blocks M. tuberculosis RecA intein splicing. cell-free RecA intein splicing, fluorescence. inhibition, %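 (about 9 µM by stock and volumes)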. P9WHJ3. 0.75% of 290,000 active; in the data active = inhibition above about 30%; inconclusive = no clear call, values can overlap the other calls;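 note: 0% = vehicle wells and 100% = reference inhibitor control wells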
# Target sequence (P9WHJ3 whole entry, looked up, canonical isoform): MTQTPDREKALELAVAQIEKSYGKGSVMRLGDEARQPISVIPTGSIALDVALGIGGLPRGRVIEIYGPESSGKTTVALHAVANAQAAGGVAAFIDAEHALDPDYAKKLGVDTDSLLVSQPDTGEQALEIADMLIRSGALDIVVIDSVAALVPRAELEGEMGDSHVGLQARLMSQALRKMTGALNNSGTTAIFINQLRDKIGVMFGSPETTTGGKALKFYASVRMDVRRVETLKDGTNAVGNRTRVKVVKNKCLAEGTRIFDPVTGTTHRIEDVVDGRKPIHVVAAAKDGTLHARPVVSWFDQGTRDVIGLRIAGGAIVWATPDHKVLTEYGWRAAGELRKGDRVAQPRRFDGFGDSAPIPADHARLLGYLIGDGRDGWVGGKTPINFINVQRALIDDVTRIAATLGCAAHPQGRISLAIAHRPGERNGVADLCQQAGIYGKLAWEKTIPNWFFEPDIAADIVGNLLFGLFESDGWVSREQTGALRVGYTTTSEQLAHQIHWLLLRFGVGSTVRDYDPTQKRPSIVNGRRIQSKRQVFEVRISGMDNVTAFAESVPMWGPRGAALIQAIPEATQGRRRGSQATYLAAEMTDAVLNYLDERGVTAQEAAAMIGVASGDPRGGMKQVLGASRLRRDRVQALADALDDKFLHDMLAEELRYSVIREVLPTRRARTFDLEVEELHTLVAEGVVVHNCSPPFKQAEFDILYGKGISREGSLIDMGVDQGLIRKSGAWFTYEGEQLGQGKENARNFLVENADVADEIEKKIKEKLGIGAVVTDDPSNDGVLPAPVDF
# Mtb H37Rv: M. tuberculosis H37Rv growth inhibitors, H37Rv strain (AID 1626). M. tuberculosis H37Rv growth inhibition; higher % means a stronger effect. one-dose inhibition, % at 10 µM; IC50 in µM for titrated hits. 0.95% of 220,000 active;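 active = confirmed in a dose series; inconclusive = inhibition above 80% but not taken into the dose series; inactive = below 80% or under 30% at every dose of the series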;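 note: bacteria incubated seven days before Alamar blue readout; 0% = bacteria only wells and 100% = bacteria with antibiotic wells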
# Mtb betalactam: beta-lactam sensitization of Mtb H37Rv; M. tuberculosis H37Rv growth with meropenem, percent inhibition; hits of this screen are not shown here; 0.27% of 330,000 active; AID 434955; inhibition, % at 25 µM;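 active = about 74% or more and at least 40 points above the plate without the antibiotic, then above 30% in a dose series; inconclusive = first-round hits that could not be retested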;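 note: growth measured after seven days incubation then overnight dye step; 0% = bacteria only wells and 100% = bacteria with antibiotic; twin plates without the antibiotic show which effects depend on it; some results filed as inactive read as strong as hits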
# YopH PTP inh: YopH (Yersinia) phosphatase inhibition | fluorescence Ex485/Em525 | inhibition, %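 (about 10 µM by stock and volumes)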 | 0.16% of 140,000 active | AID 898;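 active = inhibition of 50% or more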;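 note: controls were vehicle for no effect and minimum signal wells for full effect; inactives centre near -20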
# Arbovirus anti repeat: further read-out of Arbovirus anti, marked with its call; inhibition, %; measured here: 10K subset replicate screen; many hits read low in the repeat;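 first of two repeat runs on a subset; 0% = infected and 100% = uninfected wells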
# The depositor's hits bear a star; ? = inconclusive; . = no result given; & = joins results of further samples. The list is partial (hit frequency here may not be typical).
SMILES,Arbovirus anti,RecA splice inh,Mtb H37Rv,Mtb betalactam,YopH PTP inh,others
N#CC(c1ccc(=O)[nH]n1)c1ccc(Cl)cc1Cl (stereo not drawn),-5,-2.2,6%,-6,.,
CNS(=O)(=O)c1cc(OCC(N)=O)c(C)cc1Cl,0,-1.4,8%,-7,-70,
CCCCOc1ccc(C)cc1CN(CCO)CCO,1,0.6,3%,-7,-9,
CC(C)Cn1c(=S)[nH]c2ccccc2c1=O,-4,1.8,-6%,3,.,
C=CCn1c(SCC(=O)Nc2ccccc2CC)nnc1-c1ccncc1,1,-0.1,1%,5,-29,
CCN(CC)C(=O)c1ccc2c(c1[N+](=O)[O-])C(=O)c1ccccc1C2=O,-12,42*,-2%,-8,-22,
O=C(O)c1ccccc1C(=O)NC1CCN(c2nccc(C(F)(F)F)n2)CC1,.,-3.3,.,-1,.,
COc1cccc(OC)c1C(=O)Nc1ccc(N2CCCCC2)cc1,1,0.1,1%,16,9,
N#CCCN(C(=O)COc1ccc(Br)cc1F)c1ccc(F)cc1,17,3.2,8%,3,.,
CCN1CC=C2C(C#N)=C(N)C(C#N)(C#N)[C@H](c3ccoc3)[C@H]2C1,3,-69,-9%,-9,-20,

# Next part, starting with the last five of the part before.
SMILES,Arbovirus anti,RecA splice inh,Mtb H37Rv,Mtb betalactam,YopH PTP inh,others
CCN(CC)C(=O)c1ccc2c(c1[N+](=O)[O-])C(=O)c1ccccc1C2=O,-12,42*,-2%,-8,-22,
O=C(O)c1ccccc1C(=O)NC1CCN(c2nccc(C(F)(F)F)n2)CC1,.,-3.3,.,-1,.,
COc1cccc(OC)c1C(=O)Nc1ccc(N2CCCCC2)cc1,1,0.1,1%,16,9,
N#CCCN(C(=O)COc1ccc(Br)cc1F)c1ccc(F)cc1,17,3.2,8%,3,.,
CCN1CC=C2C(C#N)=C(N)C(C#N)(C#N)[C@H](c3ccoc3)[C@H]2C1,3,-69,-9%,-9,-20,
O=C(COc1coc(CN2CCc3ccccc32)cc1=O)Nc1ccc([N+](=O)[O-])cc1,.,-8.7,.,-2,.,
COc1ccc(OCC(O)CNC(=O)c2ccccc2)cc1 (stereo not drawn),.,1.4,-12%,-1,.,
Cc1ccc(C(=O)COC(=O)c2cc(=O)[nH]c3ccccc23)cc1C,2,-8.7,0%,7,.,
CC(=O)Nc1ccc(Nc2ncnc3c2cnn3-c2ccc(C)cc2C)cc1,-18,1.2,-2%,0,-20,
COc1nc(-c2ccc(C)cc2)ccc1-c1noc(-c2cccnc2)n1,.,-2.9,-1%,24,.,
O=C(Nc1ccccc1[N+](=O)[O-])c1cc(S(=O)(=O)Nc2ccccn2)ccc1Cl,.,1.3,.,3,.,
COC(=O)c1ccc(NC(=O)CSc2nnc(C(C)NC(=O)c3ccccc3Cl)n2C)cc1 (stereo not drawn),4,3.1,-11%,2,-28,
O=C(NC1CCCC1)C(c1ccccc1F)N(C(=O)c1ccco1)C1CCCC1 (stereo not drawn),-18,1.3,0%,-11,-23,
C=CCn1c(NC)cc(=O)n(C)c1=O,11,-0.6,-6%,-2,-39,
COc1ccc(NC(=O)CSc2nnc(Cc3ccccc3)c(=O)n2N)cc1OC,.,-0.6,.,-5,.,
Cc1ccc2nc3c(c(N)c2c1)CCN3C,.,-2.5,.,-1,.,
CNC(=O)N(C1=NCCCCC1)c1ccc(Br)cc1,-12,2.1,5%,-6,-12,
CC1CCN(C(=O)Cn2c(=O)oc3cc(S(=O)(=O)N4CCCCC4)ccc32)CC1,.,-0.8,.,-3,.,
NC(=O)CCC(NS(=O)(=O)c1ccc(Cl)cc1)C(=O)NCC1CCCCC1 (stereo not drawn),.,4.2,.,-1,.,
CN1CCN(S(=O)(=O)c2ccc(N(C)Cc3ccc(OC(F)F)cc3)c([N+](=O)[O-])c2)CC1,.,1.3,.,-1,.,
CC(C)Oc1cc(NC(=O)CS(=O)(=O)CC(=O)N(C)C)c(Cl)cc1Cl,-3,.,10%,-7,.,
CCOc1ccc(N2C(=O)CC(SC(=NC)Nc3ccc(F)cc3)C2=O)cc1 (stereo not drawn),-1,.,0%,-2,-22,
O=C(COc1ccc(Br)cc1)NC(=S)Nc1ccccc1N1CCOCC1,.,3.7,.,2,.,
CN(CC(=O)Nc1ccc(F)cc1)C(=O)CCc1nc2ccccc2c(=O)[nH]1,.,-1.3,.,-12,.,
Cc1ccccc1C(=O)N1CCN(c2ccc(NC(=O)c3ccco3)cc2Cl)CC1,-23,-1.6,3%,49,-38,
CC(C)COc1ccc(C(=O)Nc2ccc(N3CCOCC3)cc2N2CCOCC2)cc1,.,0.4,.,-1,.,
COCC(=O)N1CCN(c2nc3ccccc3o2)CC1,-3,-1.4,1%,-2,.,
Cc1cc(C(=O)CN2C(=O)NC3(CCCc4sccc43)C2=O)c(C)n1-c1ccccc1 (stereo not drawn),-15,0.0,9%,0,-9,
C=CCN1C(=O)NC(=O)/C(=C/C=C/c2ccccc2)C1=O,3,1.0,-4%,.,.,
C=CCNC(=O)NC(=O)COC(=O)CCCSc1nc2ccccc2[nH]1,11,-0.8,-11%,-3,-16,
NNC(=O)c1cc(-c2ccc(O)cc2)nc2ccc(Br)cc12,.,6.8,9%,2,.,
Cc1ccc(-n2c(C)nc3ccccc3c2=O)cc1C,-2,-2.2,-5%,-2,.,
N#Cc1ccc(NC(=O)c2cc(-c3cccs3)on2)cc1,-15,-0.7,-3%,-3,.,
O=C(NCCc1ccc2c(c1)OCCO2)c1ccc([N+](=O)[O-])cc1Cl,18,.,9%,3,.,
Cc1cc(C)c[n+](CC(=O)c2ccc(-c3ccccc3)cc2)c1,3,1.5,6%,-1,-12,
CCOc1ccc2[nH]c(=O)c(C(c3nnnn3Cc3ccco3)N3CCCC(C)C3)cc2c1 (stereo not drawn),-8,3.2,12%,-3,-2,
CCOC(=O)N1CCN(C(=O)c2ccc3c(c2)N(C)C(=O)/C(=C\c2ccc(OCC)c(OC)c2)S3)CC1,.,4.3,.,89,.,
Cc1cccc(OCCOc2ccccc2C=C(C#N)C#N)c1,20,6.3,19%,-5,-28,
CC(=O)Oc1ccccc1C(=O)Nc1ncc([N+](=O)[O-])s1,31*,23,6%&13%,-2,.,
Cc1cc(=O)cc(C)n1-c1ccc(Cl)c(Cl)c1,.,-0.4,.,1,.,
CCOC(=O)c1c(Nc2ccc(Cl)cc2)sc(/C=C2\C=Nc3ccccc32)c1O,-13,.,-5%,?,-25,
COC(=O)c1c(C(=O)OC)c2ccccn2c1C(=O)c1ccccc1,.,-1.5,.,-5,.,
CC(=O)NCCc1nc2cc(NC(=O)c3ccc(Cl)cc3)ccc2n1C,.,-2.3,.,4,.,
CCCCNc1ncnc2c1nnn2Cc1ccccc1Cl,.,0.9,.,1,.,
Cn1nc(C(=O)NCc2cccnc2)c2ccccc2c1=O,-6,0.9,-5%,-12,-16,
CSc1nc(-c2ccccc2)cc(C)c1C#N,-8,0.1,3%,3,.,
O=C(c1ccco1)N1CCN(C(=O)C2CC(c3ccc(Cl)c(Cl)c3)=NO2)CC1 (stereo not drawn),8,2.0,13%,97,-12,
COc1ccc(NC(=O)C(=O)N/N=C/c2cccnc2)cc1,.,-1.6,4%,-2,.,
CCN(CC)C(=O)C(=O)c1c(-c2ccccc2)[nH]c2ccccc12,-3,6.0,-2%,4,0,
O=C(COC(=O)c1ccc(Br)o1)Nc1ccc(S(=O)(=O)N2CCCC2)cc1,-3,-1.5,-7%,-2,17,
O=c1nccc(Nc2ccccc2)[nH]1,.,-0.3,-10%,3,.,
CC(C)c1ccc(NC(=O)CC2Oc3ccccc3NC2=O)cc1 (stereo not drawn),.,-0.7,.,4,.,
O=C(Nc1cccc([N+](=O)[O-])c1)c1ccc(N2CCCC2=O)cc1,2,.,3%,0,.,
CNc1nc(-c2ccccc2)cc(-c2ccccc2)n1,.,-1.6,.,12,.,
Cc1ccc(Nc2c(-c3ccco3)nc3nc(C)cc(C)n23)cc1,-9,-1.1,4%,2,.,
# Next part
SMILES,Arbovirus anti,RecA splice inh,Mtb H37Rv,Mtb betalactam,YopH PTP inh,others
O=C(CCS(=O)(=O)c1ccc(F)cc1)N1CCN(c2ccccc2)CC1,.,0.0,.,-3,.,
CCN1CCc2c(sc(NC(=O)c3ccc(S(=O)(=O)N4CCOCC4)cc3)c2C(N)=O)C1,3,0.0,2%,4,-25,Arbovirus anti repeat=-3
Cc1nn(Cc2cccc(C(=O)NC(C)c3ccc(C(C)(C)C)cc3)c2)c(C)c1[N+](=O)[O-] (stereo not drawn),-10,5.3,19%,2,-17,
CN(Cc1ccon1)C(=O)CC1C(=O)NCCN1CC(C)(C)C (stereo not drawn),3,-2.6,-3%,-1,.,
O=C1CC(c2ccccc2)CC(O)=C1C=NCc1ccccc1 (stereo not drawn),5,2.5,-2%,3,-30,
CC1CCC(NC(=O)CCC(=O)N2CC(C)Oc3ccccc32)CC1 (stereo not drawn),.,-3.1,.,2,.,
On1c(-c2ccccc2Cl)nc2ccccc21,12,-4.8,12%,0,.,
CCOc1ccccc1NS(=O)(=O)c1ccc2[nH]c(=O)[nH]c2c1,.,-0.3,.,-2,.,
COc1ccc(OC)c(NC(=O)c2cccc(S(=O)(=O)N3CCN(C(C)=O)CC3)c2)c1,.,-1.1,.,1,.,
Cc1ccc2nc(NC(=O)CSc3nncc(=O)n3N)sc2c1,-6,2.1,3%,-2,-13,
C/C(=N/OC(=O)c1cccc(Cl)c1)c1nccs1,4,1.7,-1%,1,-32,
COC(=O)Nc1cc(C(F)(F)F)ccc1N1CCN(c2ccccc2)CC1,7,1.7,0%,6,32,
OCc1ncc(-c2ccccc2)s1,.,-1.4,-10%,2,.,
O=C(O)CCC(=O)Nc1ccccc1N1CCOCC1,5,2.7,-12%,-11,-13,
Cc1cc(OC(=O)CCNC(=O)OC(C)(C)C)c2c3c(c(=O)oc2c1)CCC3,-2,11,-4%,49,10,
O=C(Nc1ccc(Cl)cc1)c1sccc1-n1cccc1,-5,1.6,6%,5,.,
CCN(CC)S(=O)(=O)c1cccc(-c2nnc(SCCOc3ccc(Cl)cc3)o2)c1,6,-1.1,3%,-4,-16,
C=CCNC(=S)N1CCC(C(N)=O)CC1,16,-3.5,-2%,-6,.,
COc1ccc(C2c3c(oc4ccccc4c3=O)C(=O)N2Cc2ccncc2)cc1OC (stereo not drawn),.,-2.2,5%,-4,-19,
CC1CN(Cc2cc(=O)oc3cc(O)ccc23)CC(C)O1 (stereo not drawn),.,-89,.,-11,.,
O=C(CCS(=O)(=O)c1ccccc1)Nc1ccc(N2CCOCC2)cc1,0,-0.8,2%,7,.,
COc1ccc(CC(=O)Nc2ccc(-c3csc(C)n3)cc2)cc1,2,-0.4,5%,22,-4,
O=C1c2ccc(-c3ccc4c(c3)C(=O)N(CCO)C4=O)cc2C(=O)N1CCO,.,-4.0,3%,-5,.,
Cc1ccc(NC(=O)CSc2nc(=O)cc(N)n2-c2ccccc2)cc1,4,-0.5,-14%,-3,-35,
Cc1ccc(CN2C(=O)CCC2C(=O)NCc2ccc3c(c2)OCO3)cc1 (stereo not drawn),6,1.8,-18%,0,-25,
CCCn1nc(C(=O)NNC(=O)C2CSC3(C)CCC(=O)N23)c2ccccc2c1=O (stereo not drawn),.,-1.6,.,1,.,
CC(=O)NS(=O)(=O)c1ccc(NC(=O)NC2CCCCC2)cc1,2,-0.1,-10%,-1,-52,
O=C(c1cc(C2CC2)on1)N1CCCC(N2CCN(c3ccc(F)cc3)CC2)C1 (stereo not drawn),.,1.1,.,-7,.,
COc1ccc(NC(=O)CN(C)C(=O)c2ccc(S(=O)(=O)Nc3ccccc3F)cc2)cc1,.,-2.1,.,-8,.,
Cc1ccc(C(=O)NC(=S)Nc2cccc(NC(=O)c3ccccc3)c2)cc1[N+](=O)[O-],-16,2.5,6%,12,-10,

# Quoted at random: 2 compounds from above.
SMILES,Arbovirus anti,RecA splice inh,Mtb H37Rv,Mtb betalactam,YopH PTP inh,others
Cc1ccc(NC(=O)CSc2nc(=O)cc(N)n2-c2ccccc2)cc1,4,-0.5,-14%,-3,-35,
Cc1ccc(CN2C(=O)CCC2C(=O)NCc2ccc3c(c2)OCO3)cc1 (stereo not drawn),6,1.8,-18%,0,-25,

# (cont.)
SMILES,Arbovirus anti,RecA splice inh,Mtb H37Rv,Mtb betalactam,YopH PTP inh,others
COc1cccc2c(=O)n(CC(=O)N3CCN(c4ccccc4)CC3)ccc12,1,-4.3,0%,4,-58,Arbovirus anti repeat=-4
CCOC(=O)C1=C(CC)Nc2ccccc2N=C1NC(=O)CCNC(C)=O,6,0.6,1%,2,.,
COCc1ccc(CN2CCC(n3nccc3NC(=O)C(OC)c3ccccc3)CC2)o1 (stereo not drawn),.,-1.4,.,-5,.,
COc1ccc(-n2nc(C(=O)NCC(=O)NCCCN3CCCCCC3)c3ccccc3c2=O)cc1Cl,3,1.7,1%,-7,.,
O=C(Nc1sc2c(c1C(=O)O)CCC2)c1ccccc1Cl,.,-3.3,.,2,.,
O=C(CN1CCCCCC1)N/N=C/c1cccs1,46*,-1.5,-7%,0,-15,

# Screens deposited in PubChem BioAssay by several laboratories.
